eIF4H inh: inhibitors of RNA binding by human eIF4H; inhibition, % at 35 µM; eIF4H fluorescence polarization binding assay; 290,000 tested, 0.94% active; AID 2012; Q15056;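 active = 50% or more with normal probe brightness, or confirmed in later tests; inconclusive = above 50% with abnormal brightness, or retests that disagree; inactive = below 50% or failed in later tests; about a fifth of its hits are not listed in these tables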;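 also: calls also rest on retests at 20 µM and on dose response follow-up; 0% = protein and probe with vehicle and 100% = probe without protein; strong numbers were not always called active; many hits fall short of the cut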
CSC inhib: cancer stem cell inhibition; cancer stem cell-like cells viability, luminescence; inhibition, % at 7.5 µM; 300,000 tested, 1.1% active;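 active = mean at 75% or more and at least half the replicates too; inconclusive = mean and replicates disagree; tested in HMLE shEcad cells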;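 also: 0% = median of negative and 100% = median of positive control wells; the first replicate is given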
Rce1 inh: yeast Ras-converting enzyme inhibition. Q03530. yeast membranes, quenched prenylated peptide cleavage fluorescence. calls only. 290,000 tested, 0.27% active. AID 2563;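 active = fall in fluorescence gain of 50% or more versus controls, with final raw signal at or below 3038400; inconclusive = same 50% fall but final raw signal above 3038400; inactive = fall in fluorescence gain under 50%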;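 also: plate controls were neutral control wells for no effect and wells lacking membranes for full effect; tested at 10 µM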
Target sequence (Q03530 whole entry, looked up): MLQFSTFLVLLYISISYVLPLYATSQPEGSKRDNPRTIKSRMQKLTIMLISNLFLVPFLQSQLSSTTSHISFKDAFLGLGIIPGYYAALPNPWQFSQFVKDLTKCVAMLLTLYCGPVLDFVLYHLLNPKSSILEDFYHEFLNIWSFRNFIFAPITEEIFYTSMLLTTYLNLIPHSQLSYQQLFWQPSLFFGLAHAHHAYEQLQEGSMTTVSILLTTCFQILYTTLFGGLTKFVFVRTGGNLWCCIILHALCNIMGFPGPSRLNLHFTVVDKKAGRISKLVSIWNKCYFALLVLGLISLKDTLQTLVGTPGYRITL
UUG fidelity: alters start codon recognition fidelity in yeast; S. cerevisiae UUG-firefly luciferase reporter, luminescence/redox ratio; activity score, % at 18.7 µM; 350,000 tested, 0.13% active;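 active = replicate mean at a twofold rise or more, about +100% in these data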;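 also: firefly luciferase made from a UUG start codon reports start codon fidelity; reporter light over untreated wells divided by growth signal over untreated wells; some hits fall short of that in this replicate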
PABP polyA inh: blocks human PABP binding to poly(A) RNA; P11940; fluorescence polarization; inhibition, % at 35 µM; 290,000 tested, 1% active;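 active = 50% or more with normal probe brightness, or confirmed in later tests; inconclusive = above 50% with abnormal brightness, or retests that disagree; inactive = below 50% or failed in later tests; about a fifth of its hits are not listed in these tables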;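 also: calls also rest on retests at 20 µM and on dose response follow-up; controls were probe without protein and protein plus probe with vehicle; some compounds called inactive have numbers as strong as hits; many hits fall short of the cut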
MT1-MMP act inh: inhibitors of human MT1-MMP activation; P50281; HT1080 RFP-PRO-GFP cells, GFP/RFP ratio fluorescence, overnight; percent of plate control window, DMSO zero; GFP/RFP ratio change, % at 20 µM; 360,000 tested, 0.061% active; AID 651647;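 active = GFP/RFP ratio change of at least 30% with cell ATP level not reduced by more than half and red fluorescence within 50% of control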; also: strong numbers were not always called active
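Material: RFP-PRO-GFP reporter HT1080 cells. Dosing: single-point 20 µM compound, 1% DMSO. Controls: DMSO and RFP-L50D-GFP cell wells. Timing: cells overnight before dosing, compound overnight, 37 °C, 5% CO2. Measure: GFP/RFP fluorescence ratio.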
HIV Env fusion: HIV envelope-mediated fusion inhibition; inhibition, % at 12.3 µM; HeLa-JRFL Env/CEM21 cell fusion, luciferase; 360,000 tested, 1.1% active;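 active = mean replicate inhibition score of at least 50 and every replicate individually at or above 50; inconclusive = only one of the two criteria met; inactive = mean below 50 and not all replicates reaching 50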;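 also: 0% = plate neutral controls and 100% = maraviroc near 300 nM; one replicate is shown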
eIF4H inh retest: second read-out of eIF4H inh, no call of its own (marks repeat the call); inhibition, %; compound at 20 µM; confirmation average;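 mean of two retest wells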
PABP polyA inh retest: recorded beside PABP polyA inh, whose call it bears; inhibition, %; compound at 20 µM; confirmation repeats;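 mean of two retest wells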
MT1-MMP act inh RFP: further read-out of MT1-MMP act inh, marked with its call; RFP signal change, %; measured here: RFP expression control read;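 0 = vehicle wells; hits needed this value within 50% of zero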
* hit, by the source's call; i = inactive; ? = inconclusive; / = no result given; + = active, no number; & = joins results of further samples; [ ] = another dose, or the depositor's remark.

Start of the data: the first 2 entries, ahead of the listing:
SMILES	eIF4H inh	CSC inhib	Rce1 inh	UUG fidelity	PABP polyA inh	MT1-MMP act inh	MT1-MMP act inh RFP	HIV Env fusion	others
COc1cccc2cc(C(=O)n3ccc(C)n3)c(=O)oc12	0	-14	i	-10	1	3	-5	/
COc1ccc(-n2c(SCC(=O)Nc3ccc(Br)cc3)nc(O)cc2=O)cc1	2	-17	i	-7	-6	3	2	-3

Main list, repeating the preview:
SMILES	eIF4H inh	CSC inhib	Rce1 inh	UUG fidelity	PABP polyA inh	MT1-MMP act inh	MT1-MMP act inh RFP	HIV Env fusion	others
COc1cccc2cc(C(=O)n3ccc(C)n3)c(=O)oc12	0	-14	i	-10	1	3	-5	/
COc1ccc(-n2c(SCC(=O)Nc3ccc(Br)cc3)nc(O)cc2=O)cc1	2	-17	i	-7	-6	3	2	-3
CC(C)CC(=O)NN1CCCCC1	3	-11	i	-11	20	1	5	/
O=C(O)C1CCCN1S(=O)(=O)c1ccc(Cl)c(Cl)c1 (stereo not given)	-5	-20	i	-3	12	/	/	/
N#CC1=C(c2ccccc2)/C(=C/c2ccccc2)OC1=O	4	-6	i	/	4	11	6	/
Cc1cccc(C)c1NS(=O)(=O)c1ccc2c(c1)NC(=O)CO2	-11	-7	i	7	4	8	2	4
CCNC(=O)c1ccccc1SCc1ccccc1	-4	5	i	/	12	-1	3	-2
CC(=O)N1CCC(C(=O)Nc2ccc(S(=O)(=O)N3CCC(C)CC3)cc2)CC1	-3	3	i	5	11	-2	-3	-197
CCCCCC(=O)N1C[C@H](n2cc(-c3ccc(F)cc3)nn2)[C@@H](O)C[C@@H]1c1ccc(Cl)cc1	/	/	/	-8	/	4	-2	-74
COc1ccc(Br)cc1/C=C/C(=O)c1ccc(NC(C)=O)cc1	7	40	/	/	4	3	-20	-256
Cc1ccc(C)c(Cn2nnc3c(=O)[nH]c(C4CCCN(C(=O)C5CCC5)C4)nc32)c1 (stereo not given)	-1	10	i	12	-10	-1	-6	/
COc1ccc(/C=N\NC(=O)c2ccc(-c3ccccc3)cc2)cc1COC(C)=O	-5	4	i	-18	-8	2	4	15
O=C(COc1ccc2c3c(c(=O)oc2c1)CCCC3)N1C[C@H]2C[C@@H](C1)c1cccc(=O)n1C2	-9	1	i	3	-8	0	-3	/
Cc1ccc(-n2c(=O)[nH]c3ncccc3c2=O)cc1	-1	-18	i	-20	13	2	3	-1
CC(/C=C/c1ccccc1)=N\NC(=O)CSc1ccccn1	3	3	i	-11	-6	0	3	/
Cc1ccc(NC(=O)CN2CCC(Cc3ccccc3)CC2)cc1S(=O)(=O)N(C)C	17	-3	i	/	-17	1	-6	27
COC(=O)Cc1c(O)ccn(CCc2c[nH]c3ccc(OC)cc23)c1=O	1	-4	i	-19	3	1	-2	?
CC(=O)Oc1ccc(C(=O)Nc2cc(C)ccc2NC(=O)COc2ccccc2)cc1	-12	-6	i	-14	-1	-1	1	/
Cc1ccc(Cc2c(C)nc3nc(SCC(=O)NCc4ccco4)nn3c2C)cc1	51	30	i	-15	26	3	-8	1	eIF4H inh retest=49;PABP polyA inh retest=23
OCc1nc2ccccc2n1CCCOc1ccc(Br)cc1	-5	-6	i	-25	2	0	-7	/
CN(CCC#N)C(=O)CSc1ncnc2sc(-c3ccccc3)cc12	-1	-1	i	/	-10	5	0	-40
O=C(O)Cn1cnc2c(oc3ccccc32)c1=O	-7	9	/	/	5	-3	-3	1
CC(C)(C)OC(=O)N1Cc2cc3ccccc3nc2C1CO (stereo not given)	-9	0	i	-5	2	-1	-2	10
CCCCSc1nnc(-c2ccc(C)cc2)n1C	-7	/	i	-16	-3	12	-2	-35
Cc1ccc(O)c(C=Nc2cc(C)ccc2O)c1	68	-3	i	-9	118	-14	3	/	eIF4H inh retest=25;PABP polyA inh retest=44

5 structures from above, sorted by molar mass, rising:
SMILES	eIF4H inh	CSC inhib	Rce1 inh	UUG fidelity	PABP polyA inh	MT1-MMP act inh	MT1-MMP act inh RFP	HIV Env fusion	others
CC(C)CC(=O)NN1CCCCC1	3	-11	i	-11	20	1	5	/
CCNC(=O)c1ccccc1SCc1ccccc1	-4	5	i	/	12	-1	3	-2
CC(/C=C/c1ccccc1)=N\NC(=O)CSc1ccccn1	3	3	i	-11	-6	0	3	/
O=C(O)C1CCCN1S(=O)(=O)c1ccc(Cl)c(Cl)c1 (stereo not given)	-5	-20	i	-3	12	/	/	/
O=C(COc1ccc2c3c(c(=O)oc2c1)CCCC3)N1C[C@H]2C[C@@H](C1)c1cccc(=O)n1C2	-9	1	i	3	-8	0	-3	/

Next section.
SMILES	eIF4H inh	CSC inhib	Rce1 inh	UUG fidelity	PABP polyA inh	MT1-MMP act inh	MT1-MMP act inh RFP	HIV Env fusion	others
O=C1C2CCCCN2C(=O)N1CCCCN1CCN(c2cccc(C(F)(F)F)c2)CC1 (stereo not given)	/	/	/	-18	/	-1	1	4
CCN1CCN(C2=C(NS(=O)(=O)c3ccccc3)C(=O)c3ccccc3C2=O)CC1	15	-14	i	-5	33	0	4	-11
COc1cccc(C(=O)NC(C)C(c2cccs2)N2CCN(C)CC2)c1 (stereo not given)	-14	/	i	-16	-6	-7	-1	-22
CCOC(=O)CC1CCCCN1Cc1nc(-c2ccc(F)c(OC)c2)oc1C (stereo not given)	-9	/	/	-16	-5	2	7	-2
COCC(=O)NC1CC2CCCC(C1)N2Cc1ccccc1 (stereo not given)	-8	-7	i	/	-9	-1	-1	5
CCN(CC)c1ccc(NC(=O)C2CCCN(S(=O)(=O)c3cnc[nH]3)C2)c(C)c1 (stereo not given)	-4	-16	i	-11	-8	-1	3	-24
O=C(Cc1c(Cl)cccc1Cl)OCc1ccccn1	-3	3	i	9	2	0	-1	-71
COC(=O)c1cc(C(=O)OCC(=O)N(C)c2ccccc2)cc([N+](=O)[O-])c1	-17	-11	i	-25	14	-1	-3	-1
CC(=O)SCC(=O)N=c1sc2cc(F)ccc2n1C	5	21	i	/	28	-2	0	/
CCc1cc2c(NCCO)ncnc2s1	-3	-9	i	-8	-2	3	4	-14
O=C(C[C@H]1CC[C@@H](NC(=O)c2ccncc2)[C@@H](CO)O1)NCC1CC1	/	/	/	-4	/	2	3	3[16.7 µM]
C=CCc1cc(OC)ccc1OCCN(C)Cc1ccccc1	0	29	i	/	-4	0	-2	11
O=C(O)Cn1ccc2ccccc21	-4	3	i	-4	9	4	3	2
CC(C(=O)Nc1ccccc1)N1C(=O)c2ccccc2C1=O (stereo not given)	-2	-4	i	-17	-5	1	1	-1
COc1ccc(C(=O)Cn2cnc3ccc(Cl)cc3c2=O)cc1F	0	2	i	-11	-4	0	6	0
COc1ccc(C2CC(=O)c3cnc(N4CCN(Cc5ccccc5)CC4)nc3C2)cc1 (stereo not given)	-4	16	i	-12	4	3	-8	/
Cc1ccc(-c2nnc(N3CCCCC3)c3ccccc23)cc1S(=O)(=O)N1CCN(C)CC1	-2	-2	i	/	-3	-21	-20	/
Cc1ccc(C(=O)N2CCN(c3ccc([N+](=O)[O-])c(NCc4ccco4)c3)CC2)cc1	-4	-15	i	11	4	-5	-16	/
O=C(Cn1c(NCCCO)nc2ccccc21)c1ccc(Br)cc1	-9	6	i	-3	4	-1	-3	/
O=C(NCCc1ccccc1Cl)C1CCC(=O)N(Cc2ccc(Cl)cc2)C1 (stereo not given)	-7	-4	i	15	-10	1	0	15
O=C(CCc1ccccc1)c1c(O)cc(O)cc1O	1	30	i	-9	5	-1	-9	/
CN1CCN(C(=O)/C(=C/c2ccc(N(C)C)cc2)NC(=O)c2ccccc2)CC1	46	/	i	3	16	-1	-1	7
Cc1ccc(S(=O)(=O)N(C)C)cc1NC(=O)Nc1c(-c2ccccc2)noc1C	0	13	i	-9	11	1	1	11
COc1ccc(CN2C(=O)c3cccnc3C2=O)cc1S(=O)(=O)N(C)Cc1ccco1	-9	-17	i	3	5	3	5	-8
O=C1/C(=C/c2ccc(Cl)cc2)NC(=S)N1Cc1cccnc1	12	14	i	-15	0	-5	-5	-6

Following part:
SMILES	eIF4H inh	CSC inhib	Rce1 inh	UUG fidelity	PABP polyA inh	MT1-MMP act inh	MT1-MMP act inh RFP	HIV Env fusion	others
CCn1c(SCc2cccc(C)c2)nnc1-c1ccc(C)cc1	-6	-24	i	-5	-6	-6	-7	19
COC(=O)Nc1ccc(S(=O)(=O)N(CCO)CCO)cc1	10	-9	i	-22	-6	2	4	/
N#Cc1ccsc1NC(=O)COC(=O)c1ccc2ccccc2c1	56	-10	i	/	3.5*	-8	0	-59	eIF4H inh retest=-3;PABP polyA inh retest=64*
O=C(Cn1nnc(-c2ccccc2Cl)n1)Nc1cccc(S(=O)(=O)N2CCCC2)c1	/	-17	/	-2	/	6	-15	9
C[C@H](CO)N1C[C@H](C)[C@@H](CN(C)CC2CCCCC2)Oc2c(NS(=O)(=O)c3ccccc3)cccc2C1=O	/	/	/	20&-7	/	-2	-2	-21[16.7 µM]
CC(=O)c1ccc(Sc2nnc(C)s2)c([N+](=O)[O-])c1	-2	-6	/	1	7	0	-4	-49
COc1ccccc1NC(=O)C/C(N)=N/O	0	13	i	-11	17	2	0	/
O=[N+]([O-])/C(C(Cl)=C(Cl)Cl)=C(/NC1CC1)Sc1ccccc1	-8	-8	i	/	-3	-1	-5	5
COC(=O)c1cccc(NCN2C(=O)c3ccccc3C2=O)c1	-7	-4	i	-13	-2	9	12	-1
CCCCOc1ccc(-c2cc(C(F)(F)F)c(C#N)c(SCC(=O)O)n2)cc1	?	30	+	/	-18	-68	2	-7
COc1ccc(CN2C(=O)C(CC(=O)NCc3ccco3)CC(C(=O)N(C)C)=C2C)cc1 (stereo not given)	/	/	/	-4	/	0	2	-16
COC(=O)c1ccccc1NC(=O)Nc1nnc(N2CCC(C)CC2)s1	-2	9	i	-3	-2	1	2	7
O=C(Nc1ccccc1F)C1CCCN(S(=O)(=O)c2ccc(-n3cnnn3)cc2)C1 (stereo not given)	-4	5	i	5	2	0	2	-8
O=C(/C=C/c1ccc(S(=O)(=O)N2CCOCC2)cc1)NCc1ccc(Cl)cc1	-4	-26	i	-19	10	-1	-9	/
O=C(Nc1nc(-c2ccccc2)cs1)C1c2ccccc2Oc2ccccc21	-5	15	i	-9	-10	-22	-21	/
O=C(CCCC(=O)N(CC(=O)NC1CCCCC1)Cc1ccccc1)Nc1ccccn1	-8	17	i	3	-7	/	/	/
Cc1ccc(C(=O)Nc2nnc(-c3ccco3)o2)cc1	0	-3	i	-18	-4	/	/	-6

Some of the compounds tested, so the mix of outcomes need not match the whole.
